EPAC2 ant val: human EPAC2 antagonism, validation. Q8WZA2. EPAC2 Rap1B BODIPY-GDP exchange, fluorescence. Potency, µM (highest dose often 112 µM), for inactives: at the top dose activity, negative = inhibition, hits mostly inhibitors. 16,000 tested, 1.7% active; active means well fitted inhibition curve with a large enough effect; inconclusive means small, poorly fitted or top-dose-only effect; inactive means no such curve, though single readings can be large or run the other way;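 further: 100% = activation by cAMP agonist control; nearly all actives have a fitted effect of over 40% in size; the record reuses the description of the EPAC1 agonist screen; inactives centre near -10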
Target sequence (Q8WZA2 whole entry, looked up): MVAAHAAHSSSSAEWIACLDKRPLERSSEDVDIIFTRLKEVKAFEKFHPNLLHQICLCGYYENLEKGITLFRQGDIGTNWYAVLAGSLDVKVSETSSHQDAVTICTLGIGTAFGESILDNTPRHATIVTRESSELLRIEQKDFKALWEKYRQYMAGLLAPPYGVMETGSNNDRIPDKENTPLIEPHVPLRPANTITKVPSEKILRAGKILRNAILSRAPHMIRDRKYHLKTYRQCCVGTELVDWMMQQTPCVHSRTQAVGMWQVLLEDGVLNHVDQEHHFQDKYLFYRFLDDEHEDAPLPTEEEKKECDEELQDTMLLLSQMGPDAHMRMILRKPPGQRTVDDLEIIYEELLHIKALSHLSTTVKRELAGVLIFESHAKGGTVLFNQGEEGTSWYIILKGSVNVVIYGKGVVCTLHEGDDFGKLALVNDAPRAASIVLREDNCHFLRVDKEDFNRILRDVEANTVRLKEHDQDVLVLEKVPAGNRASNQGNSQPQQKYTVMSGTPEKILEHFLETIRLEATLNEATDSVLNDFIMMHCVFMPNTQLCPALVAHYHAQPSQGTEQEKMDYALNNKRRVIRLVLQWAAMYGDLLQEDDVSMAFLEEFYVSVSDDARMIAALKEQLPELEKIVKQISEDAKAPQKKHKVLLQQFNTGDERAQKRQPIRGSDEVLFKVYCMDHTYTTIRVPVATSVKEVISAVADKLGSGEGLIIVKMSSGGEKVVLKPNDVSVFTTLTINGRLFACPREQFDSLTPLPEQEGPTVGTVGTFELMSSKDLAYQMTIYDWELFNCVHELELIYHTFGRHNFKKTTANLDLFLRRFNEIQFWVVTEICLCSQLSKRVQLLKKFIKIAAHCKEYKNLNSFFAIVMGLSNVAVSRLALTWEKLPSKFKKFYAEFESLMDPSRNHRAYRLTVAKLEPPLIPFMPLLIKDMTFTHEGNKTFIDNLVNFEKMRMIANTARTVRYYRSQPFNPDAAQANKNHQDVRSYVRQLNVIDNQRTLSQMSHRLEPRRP
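Fluorescent exchange read-out: 100 nM EPAC2 with 250 nM RAP1B–BODIPY-GDP and 50 uM GDP; BODIPY-GDP release lowers fluorescence. Read at 480/540 nm every 5 min for 30 min at room temperature; normalized to 6.5 mM cAMP.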
* marks the source's active call; other numbers are inactive results; ? = inconclusive; & = joins results of further samples; [ ] = another dose, or the depositor's remark. Potency means the concentration at half of the fitted maximal effect.

SMILES | EPAC2 ant val
CCOC(=O)C1=C(N)Oc2ccc(Br)cc2C1C(C#N)C(=O)OCC (centres undefined) | -22.5%[151 µM]
Cc1cc(-c2ccnc(-n3ncc(C(=O)NCCc4cccnc4)c3C)n2)c(C)s1 | -16.0%
CO[C@@H]1[C@@H](OC)[C@H](C)[C@@](O)(CC(=O)O)O[C@H]1[C@H](C)[C@H]1O[C@@]2(CC[C@@](C)([C@H]3CC[C@@](C)([C@@H]4O[C@@H]([C@H]5O[C@](C)(O)[C@H](C)C[C@@H]5C)C[C@@H]4OC4C[C@H](OC)[C@@H](OC)[C@H](C)O4)O3)O2)C[C@H](O)[C@H]1C (some centres undefined) | 4.6%
CN(C)C(=O)[C@@H]1C[C@@H](Sc2nc3ccccc3[nH]2)CN1Cc1ccc(Cl)cc1 | -23.8%
O=C(O)CN(CCOCCOCCN(CC(=O)O)CC(=O)O)CC(=O)O | -0.4%&-17.2%
Fc1ccc(N2CCN(Cc3ccc4c(c3)CN(Cc3cccn3-c3ncccn3)CCO4)CC2)cc1 | ?
O=C1CC(c2ccc(O)cc2)Oc2ccccc21 (centres undefined) | ?
O=[N+]([O-])c1ccc2c(c1)S(=O)(=O)C=C2 | -15.7%
Cc1ccc(C)c(S(=O)(=O)NCc2nc(N3CCCC3)c3cc(Cl)ccc3n2)c1 | -27.4%
COC(=O)N1CCC2(CCCN(Cc3ccc(C#N)cc3)C2)CC1 | -10.4%
CCOc1cc(CC(=O)N[C@@H](CC(C)C)c2ccccc2N2CCCCC2)ccc1C(=O)O | -23.7%[56.6 µM]
COc1ccc(-c2nc3cnc(N(C)C)nc3n(CCC#N)c2=O)cc1 | -21.0%
Cc1[nH]c(=O)c(C#N)cc1-c1ccncc1 | -8.2%
CCCCNC(=O)NS(=O)(=O)c1ccc(C)cc1 | ?
Cc1cnc(CNc2cc(-c3ccccc3C(F)(F)F)ncn2)cn1 | -15.1%
COc1cc([C@@H]2c3cc4c(cc3C(O[C@@H]3O[C@@H]5COC(c6cccs6)O[C@H]5[C@H](O)[C@H]3O)C3COC(=O)[C@@H]32)OCO4)cc(OC)c1O (some centres undefined) | -11.6%
Cc1cnc(CNc2ncnc3ccc(-c4ccccc4C#N)cc23)cn1 | -18.1%
CS(=O)(=O)N1CCC[C@@]2(CCN(Cc3nccs3)C2)C1 | -29.1%
COc1ccc(NC(=O)N2CC[C@@]3(CCCN(C(C)=O)C3)C2)cc1 | -10.0%
O=C(c1ccncc1)N1CCC2(CC1)CCN(c1ccc(-c3ccccc3)cc1)CC2 | -18.5%
CCOc1ccc(/C=C/C(=O)c2cccs2)cc1 | -15.3%
Cc1cnc(-n2ncc(C(=O)NC(C)(C)CO)c2-c2cccs2)nc1-c1ccc(F)cc1 | -4.2%
COC(=O)c1cc(CNC(=O)c2cccc(F)c2)cc(NC(=O)c2ccccc2OC)c1 | -25.4%
O=C(CO)[C@@H](O)[C@H](O)[C@@H](O)C(=O)O | -2.6%
N#Cc1ccccc1-c1ccc2ncnc(NC3CC3)c2c1 | -8.6%
Cc1nonc1CN(C)C(=O)C1CC12CCN(C(=O)/C=C/c1cccc(Cl)c1)CC2 (centres undefined) | -14.9%
O=c1c(CCc2ccccc2)nc2cnc(Oc3ccccc3)nc2n1C1CC1 | -46.4%
COc1c(N2CCNC(C)C2)c(F)cc2c(=O)c(C(=O)O)cn(C3CC3)c12 (centres undefined) | -10.6%
CC(C)=CCC/C(C)=C/COc1ccc2ccc(=O)oc2c1 | ?
COc1cc(-c2cc(=O)c3ccccc3o2)ccc1O | ?
CNc1nc(-c2ccc(N(C)C)cc2)nc2ccccc12 | -15.9%
CCC1COCCS(=O)(=O)N1Cc1cccc(C(F)(F)F)c1 (centres undefined) | ?
O=C1C[C@@H]2c3c(cccc3CN1Cc1ccccc1)C[C@@H](O)[C@H]2O | -2.9%
COc1ccc(CNc2ncncc2-c2cccc(C#N)c2)c(OC)c1 | -47.4%
COc1cccc(Nc2ncc3nc(-c4ccc(F)cc4)c(=O)n(C)c3n2)c1 | -5.3%
OC[C@@H](O)[C@H](O)[C@H](O)[C@@H](O)CO | -1.7%&-16.5%
COc1c2c(cc3c1C(CC(O)C(C)C)N(C)CC3)OCO2 (centres undefined) | 13.5%
Cc1cc(O)cc(=O)o1 | -10.9%
OCCN1CCN(CC/C=C2/c3ccccc3Sc3ccc(C(F)(F)F)cc32)CC1 | ?
COC(=O)[C@@H]1[C@H]2C[C@H]3c4[nH]c5ccccc5c4CCN3C[C@@H]2CC[C@@H]1O | ?
O=c1cnc2cnc(Nc3ccccc3)nc2n1CCc1ccccc1 | 2.4%
O=C(N/N=C\c1ccccc1O)c1ccccc1O | ?
CN1CCCC(CN2c3ccccc3Sc3ccccc32)C1 (centres undefined) | -5.3%
COc1ccc(-c2ccnc(-n3ncc(C(=O)NCc4cccnc4)c3C3CC3)n2)cc1F | -1.5%
O=C(c1cccnc1)C1CCCN(Cc2ccc3c(c2)CN(C(=O)c2cccc(Cl)c2)CCO3)C1 (centres undefined) | ?
CS(=O)(=O)c1ccc(C2=C(c3ccccc3)C(=O)OC2)cc1 | -26.4%
COc1ccccc1C(=O)N1CCOc2ccc(C(C)(O)CCn3cccn3)cc2C1 (centres undefined) | -18.4%
CN(C)c1ccc(CCC2C=Cc3ccccc32)cc1 (centres undefined) | -12.6%
c1ccc(C(c2ccccc2)N2CC3(CCNCC3)C2)cc1 | -7.4%
CC(C)C[C@H](NC(=O)N1CCCCCC1)C(=O)N[C@H](Cc1cn(C)c2ccccc12)C(=O)N[C@H](Cc1ccccn1)C(=O)O | -22.8%

(cont.)
SMILES | EPAC2 ant val
O=c1c(-c2ccc(Cl)cc2)nc2cnc(N3CCNCC3)nc2n1Cc1cccs1 | ?
COc1cc(-c2c(-c3ccc4c(c3)OCO4)noc2-c2ccsc2)ccc1F | ?
CO[C@H]1[C@H](NC(=O)c2cccs2)c2ccccc2C12CCN(Cc1cccn1-c1ccccn1)CC2 | -7.3%
CC(C)(C)NC(=O)[C@H]1CN(Cc2cccnc2)CCN1C[C@@H](O)C[C@@H](Cc1ccccc1)C(=O)N[C@H]1c2ccccc2C[C@H]1O | 25.1µM*
CC(=O)OC1CC[C@]2(C)C(CC(OC(C)=O)[C@]3(C)C2CC[C@@]2(C)C(c4ccoc4)OC(=O)C4O[C@]432)C1(C)C (some centres undefined) | -27.1%
CC/C(=C\c1ccccc1)c1cccc2oc3ccccc3c12 | -28.7%
COc1ccc(Oc2ncc3ncc(=O)n(-c4ccc(OC)cc4)c3n2)cc1 | ?
COc1cccc(Cn2c(=O)c(-c3ccc(F)cc3)nc3cnc(N4CCNCC4)nc32)c1 | -32.3%
CC1=C[C@H](O)CC(C)(C)[C@H]1/C=C/C(C)=C/C=C/C(C)=C/C=C/C=C(C)/C=C/C=C(C)/C=C/C1=C(C)C[C@@H](O)CC1(C)C | 8.9%
CCN(c1nc(N)c(C(=O)N=C(N)N)nc1Cl)C(C)C | -1.4%
CCOc1ccc2nc(S(N)(=O)=O)sc2c1 | ?
CNCCC(Oc1ccccc1OC)c1ccccc1 (centres undefined) | 1.1%&2.8%
O=c1c(-c2cc(F)cc(F)c2)nc2cncnc2n1C1CC1 | 9.9%
Oc1cc(O)c2c(c1)OC(c1cc(O)c(O)c(O)c1)C(O)C2 (centres undefined) | 6.7%
COc1ccccc1-c1ccc2ncnc(N(C)C)c2c1 | ?
Cc1cccc(C)c1Nc1ncccc1C(=O)O | -1.9%
CC(C)NC(=O)N1CCC2(CC1)CCN(S(=O)(=O)c1ccccc1)CC2 | -18.1%
Nc1cc(C(Cl)=C(Cl)Cl)c(S(N)(=O)=O)cc1S(N)(=O)=O | -15.0%[56.6 µM]
COc1ccc(C(=O)N2CCC3(CCCN(c4ccccn4)C3)CC2)cc1 | -30.8%
CCOC(=O)c1c(C)n(C)c2ccc(O)cc12 | 6.6%
CN1CCN(c2ncc3nc(-c4cn(C)c5ccccc45)c(=O)n(-c4ccccc4)c3n2)CC1 | 39.3%[activator]
COCCCOc1ccnc(CS(=O)c2nc3ccccc3[nH]2)c1C (centres undefined) | 1.3%
NC(=O)[C@@H]1C[C@]2(NC(=O)NC2=O)c2cc(F)ccc2O1 | -5.7%
O=C(c1ccco1)N1CCC2(CCCN(Cc3ccccc3)C2)CC1 | -14.9%
O=C(NOC[C@H](O)CO)c1ccc(F)c(F)c1Nc1ccc(I)cc1F | -1.2%
c1ccc(-c2ccc(C(c3ccccc3)n3ccnc3)cc2)cc1 (centres undefined) | 50.1µM*
COCCNc1nc(-c2ccccc2OC)nc2ccccc12 | -9.1%
CC(=O)OCC1OC(n2c(Br)nc3c(=O)[nH]c(N)nc32)C(OC(C)=O)C1OC(C)=O (centres undefined) | -12.8%
OC(c1ccc2c(c1)CN(Cc1ccc3nsnc3c1)CCO2)C1CCCCC1 (centres undefined) | 4.5%
COCCn1c(=O)c(-c2cn(C)c3ccccc23)nc2cnc(Oc3ccc(OC)cc3)nc21 | -10.1%
COc1ccccc1CCn1c(=O)c(C)nc2cncnc21 | -23.0%
FC(F)(F)c1cccc(-c2cn[nH]c2C2CCCN(Cc3cccn3-c3ccccn3)C2)c1 (centres undefined) | -16.2%
N[C@@H](C(=O)N[C@@H]1C(=O)N2C(C(=O)O)=C(Cl)CS[C@H]12)c1ccccc1 | -2.6%
COc1ccccc1CN1CC[C@@]2(CCCN(C(=O)c3c(C)noc3C)C2)C1 | -14.0%
CC(C)N1[N]C(=C2C=c3cc(O)ccc3=N2)c2c(N)ncnc21 | -14.0%
O=c1c(-c2ccc(F)cc2)nc2cncnc2n1Cc1ccccc1 | -3.5%
CCN1C(=O)NC(c2ccccc2)C1=O (centres undefined) | -12.5%[56.6 µM]
CCCCc1cc2ccccc2c(OCCN(C)C)n1 | -11.9%[56.6 µM]
O=C(c1csnn1)N1CCC2(CC1)CN(c1cccc(-c3ccccc3)c1)C2 | ?
O=C1C[C@@H]2c3c(cccc3CN1Cc1ccc(F)cc1)C[C@@H](O)[C@H]2O | -8.9%
COc1ccccc1CN1CC2(CCN(C(=O)c3cnccn3)CC2)C1 | -13.8%
CC(C)(C(=O)O)c1ccc(C(O)CCCN2CCC(C(O)(c3ccccc3)c3ccccc3)CC2)cc1 (centres undefined) | 8.9%&-8.8%&11.4%
COCc1c(C(=O)NC2CCCC2)cnn1-c1nccc(-c2cc(C)sc2C)n1 | -20.0%
NC(=O)c1ncn([C@@H]2O[C@H](CO)[C@@H](O)[C@H]2O)c1O | 0.8%&6.3%
COc1cccc(Cn2c(=O)c(-c3cn(C)c4ccccc34)nc3cnc(OC)nc32)c1 | 11.0%
CN(C)C(=O)c1ccc(-c2cncnc2-n2ccnc2)cc1 | -7.9%
NCCCNCCSP(=O)(O)O | -14.9%&1.4%
CCCCCCCCCNC(=O)[C@H](NC(=O)COc1ccccc1)[C@@H]1NC(C(=O)OC)C(C)(C)S1 (some centres undefined) | ?
Cn1cc(-c2nc3cnc(N4CCNCC4)nc3n(-c3ccccc3)c2=O)c2ccccc21 | 4.1%
Cc1ccc(C(=O)NCCc2nnc3n2CCN(C(=O)c2ccnc(Cl)c2)CC3)cc1 | -2.5%

The list continues:
SMILES | EPAC2 ant val
C=C1C2CC[C@]3(CCC4[C@@]5(C)CCC[C@@]4(CN(CCO)C5)[C@@H]3C2)[C@@H]1O (some centres undefined) | -5.0%
Cc1cc(Nc2ccccc2C(=O)O)ccc1Cl | 51.4%[activator]
O=C(Nc1ncc([N+](=O)[O-])s1)c1cccs1 | -24.0%
CNc1ncnc2c1ncn2[C@H]1C[C@H](OP(=O)(O)O)[C@@H](COP(=O)(O)O)O1 | 4.0%
OC1C2COC(O2)[C@H](O)C1O (some centres undefined) | -1.7%
C[N+]1(C)CCC(OC(=O)C(c2ccccc2)c2ccccc2)CC1 | -2.2%&-19.0%&-24.5%
COc1ncc2nc(-c3cn(C)c4ccccc34)c(=O)n(CCC#N)c2n1 | -1.4%
CN(Cc1ccco1)c1nc(-c2ccc3c(c2)OCO3)nc2ccccc12 | -27.4%
CCN(CC)CCC(=O)N1c2ccccc2Sc2ccc(C(F)(F)F)cc21 | 0.9%
COc1ccccc1-c1nccc(NCc2cccc(C)c2)n1 | -15.8%
N[C@@H](Cc1ccc(O)cc1)C(=O)O | ?
CC(C)NC(=O)[C@@H]1C[C@@H](Sc2ccccn2)CN1C1CCN(C)CC1 | -16.5%
CC1(C)CCC(=O)N2CC[C@H]3C[C@H](OC(=O)Nc4ccccc4)C[C@@H]1[C@H]32 | ?
CCNc1ncc2nc(-c3cn(C)c4ccccc34)c(=O)n(Cc3cccs3)c2n1 | 9.2%
COc1cc2c(c(OC)c1OC)-c1c(cc3c(c1OC)OCO3)C[C@@H](C)[C@](C)(O)C2 | 6.4%&3.2%

Only part of the results is shown; the hit share may differ from the screen's.
